GLA inh pH 4.5: blocks human alpha-galactosidase A at pH 4.5; activity change, negative = inhibition, % at 105 µM; 230,000 tested, under 10 active; P06280; purified enzyme, 4-MU-alpha-Gal fluorescence, pH 4.5; AID 1467; inconclusive = small, poorly fitted or top-dose-only inhibition, or a rising curve; inactive = flat fitted curve, though single readings scatter; no compound was filed as active;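 further: 0% = full activity with enzyme and -100% = basal without enzyme; dose as in the result columns while the protocol names 77 µM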
Target sequence (P06280 whole entry, looked up): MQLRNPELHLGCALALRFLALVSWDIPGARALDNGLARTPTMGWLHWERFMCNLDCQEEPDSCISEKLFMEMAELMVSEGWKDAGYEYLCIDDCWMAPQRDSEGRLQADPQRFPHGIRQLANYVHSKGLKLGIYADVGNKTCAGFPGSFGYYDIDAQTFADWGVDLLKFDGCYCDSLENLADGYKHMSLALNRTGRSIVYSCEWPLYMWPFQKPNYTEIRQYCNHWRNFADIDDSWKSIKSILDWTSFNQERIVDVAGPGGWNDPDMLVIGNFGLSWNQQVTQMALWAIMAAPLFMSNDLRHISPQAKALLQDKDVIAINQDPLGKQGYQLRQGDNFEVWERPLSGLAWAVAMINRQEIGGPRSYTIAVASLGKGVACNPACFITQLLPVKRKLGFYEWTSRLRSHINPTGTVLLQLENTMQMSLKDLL
Rango release inh: prevents RanGTP from dissociating the Rango-importin beta complex | O95149+P62826 | Biochemical FRET Rango-importin beta, RanGTP-induced dissociation | Potency, µM (titrated, usually from 46.1 µM), inactives show top-dose activity change, negative = inhibition | hit rate 0.071% among 340,000; active means falling FRET ratio curve, often poorly fitted, with flat reads before Ran was added; inconclusive means other falling curves, or compound fluorescence or quenching; inactive means flat or rising ratio curve;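 further: potency means the concentration at half of the fitted maximal effect; % of control where 0% means no effect; nearly all actives have a fitted effect of over 45% in size; -100% = wells without RanGTP and RCC1; the record marks most hits as doubtful in a second field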
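FRET read at 45 min, room temperature: inhibitors block the CFP/YFP signal rise when RanGTP (0.6 uM Ran, 2 mM GTP, 0.2 uM RCC1) frees Rango (0.1 uM) from importin beta (0.25 uM). Pre-read after 5 min compound exposure flags interference.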
Rango-impB inh: Rango-importin beta binding inhibition | Q14974 | Rango CFP/YFP FRET sensor + importin beta, 45 min | Potency, µM (highest dose often 92.2 µM), without a hit: at the top dose inhibition of complex formation | hit rate 0.031% among 340,000 | AID 540263; active = rising FRET ratio curve, often small or poorly fitted; inconclusive = mostly compound fluorescence or quenching in the first reads; inactive = flat curves in all reads;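 further: potency means the concentration at half of the fitted maximal effect; 0% = DMSO wells and 100% = buffer wells lacking importin beta; nearly all actives have a fitted effect of over 15% in size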
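FRET biosensor (snurportin 1 IBB flanked by EYFP and cerulean), 50 nM, with compound 5 min, then 0.125 microM importin beta in PBS, 1 mM DTT, 0.02% Tween-20, 0.1% BSA. CFP/YFP ratio read after 45 min at room temperature; pre-read flags interference.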
miR-21 reporter: miR-21 reporter, rising signal | HeLa miR-21 FLuc reporter, luciferase, 48 h | Potency, µM (top dose mostly 38.3 µM), for the others: at the top dose reporter change, positive = more light | 340,000 tested, under 10 active | AID 2288; active = well fitted rising curve with a large enough effect; inconclusive = small, poorly fitted or top-dose-only effect; inactive = no such curve, though single readings can be large or run the other way;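 further: % of control where 0% means no effect; miR-21 action dims this reporter so a rising signal means less miR-21 action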
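Using DMEM plus 10% FBS, HeLa miR-21-FLuc cells are incubated with test compounds (final up to about 40uM) for 48 hours; firefly luciferase signal is then imaged following reagent-mediated lysis.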
* marks the source's active call; other numbers are inactive results; ? = inconclusive; / = not tested or not shown; & = joins results of further samples.

SMILES	GLA inh pH 4.5	Rango release inh	Rango-impB inh	miR-21 reporter
Cc1ccc(C(=O)N(c2ccccc2)C2CC(C)N(C(=O)c3ccco3)c3ccccc32)cc1 (stereo not given)	-5	-4%	0.8%	18%
COc1ccc(S(=O)(=O)N2c3cc(Cl)ccc3Oc3nc4ccccc4nc32)cc1	-4	?	?	-30%
CC1=C(C(=O)Nc2ccc(C)cc2)C(c2ccc(C)o2)C2=C(CC(C)(C)CC2=O)N1 (stereo not given)	-4	-14%	0.5%	-6%
O=c1[nH]c2cc3c(cc2cc1CN(Cc1cccs1)Cc1nnnn1Cc1ccco1)OCCO3	0	?	?	-20%
COc1ccc(NC(=O)CCn2c(=O)c3cccn3c3ccccc32)c(OC)c1	/	-8%	0.8%	5%&13%
Clc1ccccc1CN(Cc1ccco1)Cc1nnnn1C1CCCC1	-5	2%	0.0%	?
Cc1ccc(NC(=O)Cn2cnc3c(=O)n(C)c(=O)n(C)c32)c(C)c1	-12	0%	0.3%	-3%
O=C(CN1CCCCC1)Nc1scc2c1c(=O)oc1ccccc12	0	-17%	-5.9%	-10%
CCC(Oc1ccc(C)c(C)c1)C(=O)O (stereo not given)	3	-7%	0.9%	-6%
CCC(CC)C(=O)N1CC(=O)Nc2ccc(F)cc2C1c1ccccc1 (stereo not given)	/	-5%	1.4%	1%
CC(C)C[C@@H](CN1CCCC1CN1C(=S)NC[C@@H]1Cc1ccc(O)cc1)N1C[C@H](Cc2ccc(O)cc2)N(CC2CCCCC2)C1=S (stereo not given in full)	/	-15%	3.1%	/
COc1cccc(/C=C/C(=O)OCC(=O)NCc2ccco2)c1OC	1	7%	-7.1%	2%
O=C(c1ccc2c3c(cccc13)CC2)C1CCCN(Cc2ccncc2)C1 (stereo not given)	1	7%	-0.1%	16%
COc1ccccc1-c1oc2ccccc2c1-c1ccc2c(c1)OCO2	/	1%	-1.4%	/
CCN(CC)S(=O)(=O)c1cccc(C(=O)NC(C)C(c2cccs2)N2CCCC2)c1 (stereo not given)	-28	-15%	1.0%	-5%
Cc1ccc(Oc2cc(C)nc(-c3ccccc3O)n2)cc1	4	9%	7.0%	-27%
Cn1cnc2cc(NCc3ccccc3O)ccc21	/	-3%	1.8%	-41%
O=C(O)c1cn(-c2ccccc2)nc1-c1cccnc1	-1	-11%	6.6%	-2%
O=C1c2ccccc2C(=O)N1CCCN1C(=O)c2ccccc2C1=O	/	-18%	0.0%	/
NS(=O)(=O)c1ccc(NC(=O)c2cc(-c3ccccc3O)n[nH]2)cc1	/	24%	2.1%	-13%

Ordered by number of heavy atoms (falling): 3 of the compounds above
SMILES	GLA inh pH 4.5	Rango release inh	Rango-impB inh	miR-21 reporter
Clc1ccccc1CN(Cc1ccco1)Cc1nnnn1C1CCCC1	-5	2%	0.0%	?
NS(=O)(=O)c1ccc(NC(=O)c2cc(-c3ccccc3O)n[nH]2)cc1	/	24%	2.1%	-13%
Cc1ccc(Oc2cc(C)nc(-c3ccccc3O)n2)cc1	4	9%	7.0%	-27%

The list continues:
SMILES	GLA inh pH 4.5	Rango release inh	Rango-impB inh	miR-21 reporter
COc1ccc(N(Cc2cc3ccccc3[nH]c2=O)S(=O)(=O)c2ccc(C)cc2)cc1	/	5%	-5.7%	-28%
Cc1ccc(Oc2ncccc2/C=N/OCc2ccc(Cl)c(Cl)c2)cc1	-26	11%	0.4%	-5%
CCCN1CCN(CCCNC(=S)Nc2ccc3nc(N4CCN(CC)CC4)cc(C)c3c2)CC1	4	18%	0.5%	2%
O=C(O)c1cnn(-c2nc(-c3ccc(Br)cc3)cs2)c1C(F)(F)F	/	-4%	0.1%	-85%
O=C1CCCC1C(=O)Nc1ccc2ccccc2c1 (stereo not given)	4	1%	-3.4%	-34%
O=C(c1ccccc1-c1nc(-c2ccccc2Cl)no1)N1CCOCC1	-5	3%	1.1%	-16%
O=C(Cc1ccc(Br)cc1)NC1CCCCC1	-2	-13%	0.7%	-32%
O=C(Cn1c2ccccc2c(=O)c2ccccc21)N/N=C/c1cc([N+](=O)[O-])ccc1N1CCCCC1	-1	-9%	?	-1%
C=CCn1c(N)c(C(=O)OCC)sc1=S	1	1%	-0.3%	-15%
Cc1sc2nc(-c3cccnc3)[nH]c(=O)c2c1-c1ccccc1	1	-9%	1.5%	0%
O=C(CCn1nc(-c2ccc(Cl)cc2)ccc1=O)N1CCN(c2ccccn2)CC1	-4	1%	3.4%	4%
COC(=O)c1ccc(C(=O)OC)c(NC(=S)N2CCCCC2C)c1 (stereo not given)	?	?	?	-19%
Cc1ccc2cc3cc(C(=O)NCCCN4CCCC4=O)oc3nc2c1	/	21%	1.3%	0%
COc1ccccc1-n1c(-c2ccccc2)c[nH]c1=S	6	3%	0.4%	1%
CCOC(=O)c1cnc2c(F)ccc(F)c2c1Sc1ccccc1	4	-8%	7.2%	0%
CC(=O)Nc1ccc(NC2=C/C(=N/S(=O)(=O)c3cccs3)c3ccccc3C2=O)cc1	-20	-19%	-0.9%	?
N=C1CCCN1CC(=O)c1ccc(Br)cc1	1	3%	5.5%	-58%
Nc1ccn(CC(=O)NCCNc2ccc([N+](=O)[O-])cn2)c(=O)n1	/	3%	0.5%	/
OCCC1CN(Cc2c(F)cccc2Cl)CCN1C1CCCC1 (stereo not given)	-11	-15%	-2.0%	5%
O=C(COc1ccccc1)NC(=S)Nc1ccc2c3c(cccc13)CC2	0	?	1.5%	5%
CCOC(=O)c1[nH]c(C)c(C(=O)OCC)c1C	-18	1%	?	-45%
Cc1ccc(-c2csnn2)cc1	7	-2%	-0.1%	-8%
O=C(c1c[nH]c2ccccc12)N1CCN(c2ccccc2)CC1	6	3%	0.0%	-2%
O=C(Oc1ccc([N+](=O)[O-])cc1)c1ccc(Cl)c(S(=O)(=O)N2CCCCC2)c1	-24	/	/	-7%
C/C(=N/NC(=O)c1cccnc1)C1=C(O)CC(C)(C)CC1=O	2	3%	-3.6%	0%
Cc1cc(C)c(S(=O)(=O)N2CCC(C(=O)NCc3ccc(Cl)cc3Cl)CC2)c(C)c1	-5	-12%	1.7%	27%
COc1cc(CNCc2ccc3c(c2)OCO3)c([N+](=O)[O-])cc1OC	/	1%	-0.7%	-4%
CC1Cc2cc(/C(O)=C3/C(=O)C(=O)N(CCCn4ccnc4)C3c3ccco3)ccc2O1 (stereo not given)	-3	3%	2.7%	-44%
CCN(CC)S(=O)(=O)c1cccc2cc(C(=O)O)c(O)cc12	6	?	?	2%
C=CCNC(=S)NNC(=O)C(CCCC)CC(C)(C)O (stereo not given)	3	46%	-2.3%	-7%
O=C(Nc1cccc(-c2cccc(Cl)c2)c1)C1CCN(C2CCC2)CC1	/	18%	5.1%	7%
COc1ccc(C(=O)O)cc1S(=O)(=O)NC(C)C	1	5%	1.0%	-2%
O=c1oc(-c2ccccc2)nc2sc3c(c12)CCCC3	0	-1%	-2.3%	-2%
COc1ccc(C=CC(=O)c2cc(O)ccc2O)cc1	/	-22%	?	/
O=C(Nc1ccccn1)Nc1cccs1	-2	23%	-1.3%	-33%
CCCCCCCCN1[C@@H](CC(=O)O)c2cc(C(F)(F)F)ccc2S1(=O)=O	/	3%	0.6%	/
CC(C)C[C@H]1CN=C(Nc2ccccc2)N1CCc1cccc(F)c1	/	9%	-3.6%	/
COc1ccc(-c2noc(CCC(=O)N3CCN(c4cccc(C(F)(F)F)c4)CC3)n2)cc1	-16	0%	-0.2%	15%
O=C(O)c1ccccc1Nc1cccc(C(F)(F)F)c1	-3&3	-13%	4.0%	-9%
COc1ccc(Nc2nc3ccc(C)cc3cc2C#N)c(OC)c1	1	2%	-0.3%	-4%
COc1cccc(CNC(=O)C2CCN(c3cnccn3)CC2)c1	8	-3%	3.2%	-7%
Cc1ccc(C(=O)OCC(=O)c2c[nH]c3ccccc23)cc1S(=O)(=O)N1CCCCC1	-5	8%	-2.0%	-1%
CC(C)NC(=O)CSc1nnc(-c2ccncc2)n1-c1ccccc1	-6	?	1.0%	-24%
CCCNC(=O)c1ccc(COc2cccc3ccccc23)o1	/	-2%	-0.3%	-2%
O=C(NCCCn1ccnc1)c1cccc(S(=O)(=O)Nc2ccc(Br)cc2)c1	/	19%	-1.1%	/
NC(=O)c1nsc(C(=O)N(Cc2ccccc2Cl)C(C(=O)NCC2CCCO2)c2ccc(O)cc2)c1N (stereo not given)	/	13%	-2.8%	-1%
CCOCCCN(C(=O)CCC(=O)Nc1cc(C)on1)C(C(=O)NC(C)(C)CC)c1cccc(OC)c1OC (stereo not given)	/	13%	-3.2%	-6%
CN1CCN(S(=O)(=O)c2ccc(N3CCN(c4ccccc4Cl)CC3)nc2)CC1	/	-5%	-1.4%	/
O=C(O)c1ccccc1N=Cc1c(O)n(-c2nccs2)c(=O)c2ccccc12	-3	?	?	-6%
O=C(Nc1ccccc1C(F)(F)F)Nc1cccc2ccccc12	-11	-9%	12%	0%
COc1ccccc1/C=C/C(=O)Nc1ccc(S(=O)(=O)Nc2cc(C)on2)cc1	/	6%	0.6%	-13%
O=C1c2ccccc2C(=O)N1CCc1c[nH]c2ccccc12	?	7%	-0.5%	-58%
O=C(CSc1nc2c(sc3ccccc32)c(=O)n1CCCN1CCOCC1)NC1CCCC1	-11	-3%	6.1%	-4%
CCC(C)NC(=O)CN(c1cc(Cl)cc(Cl)c1)S(C)(=O)=O (stereo not given)	5	1%	-0.8%	-2%
COc1cc(C#Cc2c(-c3ccccc3)n(C)c3ccccc23)cc(OC)c1	/	10%	?	-1%
COC(=O)C1C/C(=N\NS(=O)(=O)c2ccc(C)cc2)c2sccc2C1 (stereo not given)	-1	13%	-1.3%	1%
Cc1ccc(S(=O)(=O)N2CCN(C(=O)COC(=O)C3CC3C)CC2)c(C)c1 (stereo not given)	/	-3%	0.5%	/
O=C(CSCSCC(=O)Nc1ccc2c(c1)OCO2)Nc1ccc2c(c1)OCO2	-3	?	-4.6%	-18%
CC(=O)Nc1cccc(NC(=O)c2cc(C)on2)c1	-13	13%	-0.2%	-25%
COc1cc2c(c(OC)c1OC)CC(=O)N(C)CC2	-5	?	0.5%	3%
(more compounds)
SMILES	GLA inh pH 4.5	Rango release inh	Rango-impB inh	miR-21 reporter
COc1ccc(NC(=O)c2cc(-c3ccco3)nc3ccccc23)cc1S(=O)(=O)N1CCOCC1	-7	7%	-1.5%	0%
C=CC[C@H](CC(=O)NCCO)C(=O)N[C@@H](COC(=O)[C@H](CC=C)CC(=O)OC(C)(C)C)Cc1c[nH]c2ccccc12	/	2%	1.9%	/
CCOc1ccc(S(=O)(=O)N2CCNC(=O)C2)cc1	/	-1%	0.4%	/
Cc1ccc(S(=O)(=O)NCC(=O)N(CC(=O)NCC2CCCO2)Cc2ccc(Cl)cc2)cc1 (stereo not given)	/	-20%	-2.8%	8%
Cc1ccc(S(=O)(=O)NCCC(=O)Nc2ccc3c(c2)OCO3)cc1	0	-20%	-0.3%	-15%
Cc1noc(C)c1C(=O)OCC(=O)Nc1ccc(C(N)=O)cc1	4	34%	-6.1%	-1%
CCCCCNc1nc(N2CCCC2)c2c(c1C#N)CCN(C)C2	-1	?	?	-10%
Cc1noc(NS(=O)(=O)c2ccc(NC(=O)CC34CC5CC(CC(Br)(C5)C3)C4)cc2)c1C	5	23%	-0.2%	-7%
Cc1cc(=O)[nH]c2c1c(=O)[nH]n2C1CC(C)N(C)CC1C (stereo not given)	3	-20%	-1.6%	1%
COCCCn1c(=N)c(C(=O)NCC2CCCO2)cc2c(=O)n3ccccc3nc21 (stereo not given)	11	?	?	6%

Rewritten with values ahead of the structure: five of the compounds above
GLA inh pH 4.5 | Rango release inh | Rango-impB inh | miR-21 reporter | mol
4 | 34% | -6.1% | -1% | Cc1noc(C)c1C(=O)OCC(=O)Nc1ccc(C(N)=O)cc1
-1 | ? | ? | -10% | CCCCCNc1nc(N2CCCC2)c2c(c1C#N)CCN(C)C2
5 | 23% | -0.2% | -7% | Cc1noc(NS(=O)(=O)c2ccc(NC(=O)CC34CC5CC(CC(Br)(C5)C3)C4)cc2)c1C
3 | -20% | -1.6% | 1% | Cc1cc(=O)[nH]c2c1c(=O)[nH]n2C1CC(C)N(C)CC1C (stereo not given)
11 | ? | ? | 6% | COCCCn1c(=N)c(C(=O)NCC2CCCO2)cc2c(=O)n3ccccc3nc21 (stereo not given)

Bioassay records deposited in PubChem by National Center for Advancing Translational Sciences (NCATS).

Not all compounds are listed, so the mix of outcomes need not match the whole.
